Assay outcomes: PubChem, National Center for Advancing Translational Sciences (NCATS)
miR-21 FLuc = miR-21 reporter, rising signal; HeLa miR-21 FLuc reporter, luciferase, 48 h; Potency, µM (top dose mostly 38.3 µM), for the others: top-dose reporter change, positive = more light; 340,000 tested, under 10 active; AID 2288; active = well fitted rising curve with a large enough effect; inconclusive = small, poorly fitted or top-dose-only effect; inactive = no such curve, though single readings can be large or run the other way;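 note: % of control where 0% means no effect; miR-21 action dims this reporter so a rising signal means less miR-21 action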
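HeLa cells endogenously expressing miR-21, stably carrying CMV-driven firefly luciferase with a downstream miR-21 binding site, 2000 cells/well. Titrations up to approximately 40 uM, 48 hours; luciferase luminescence read.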
GLA inh pH 4.5 = inhibitors of human alpha-galactosidase A at pH 4.5; purified enzyme, 4-MU-alpha-Gal fluorescence, pH 4.5; 230,000 tested, under 10 active; activity change, negative = inhibition, % at 105 µM; P06280; inconclusive = small, poorly fitted or top-dose-only inhibition, or a rising curve; inactive = flat fitted curve, though single readings scatter; no compound was filed as active;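 note: 0% = full activity with enzyme and -100% = basal without enzyme; dose as in the result columns while the protocol names 77 µM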
Target sequence (P06280 whole entry, looked up): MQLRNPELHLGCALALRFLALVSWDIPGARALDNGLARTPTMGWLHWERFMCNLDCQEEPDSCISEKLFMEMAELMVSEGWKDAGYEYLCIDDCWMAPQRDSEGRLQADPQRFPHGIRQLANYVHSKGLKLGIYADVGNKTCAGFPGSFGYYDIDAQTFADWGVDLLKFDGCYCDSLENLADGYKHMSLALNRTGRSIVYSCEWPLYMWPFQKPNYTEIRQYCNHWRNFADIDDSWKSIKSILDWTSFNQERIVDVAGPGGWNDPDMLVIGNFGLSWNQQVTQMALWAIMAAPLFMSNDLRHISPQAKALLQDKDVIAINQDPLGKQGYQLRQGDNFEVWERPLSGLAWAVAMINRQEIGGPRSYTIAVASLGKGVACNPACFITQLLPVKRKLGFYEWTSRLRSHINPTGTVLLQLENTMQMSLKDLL
Rango-impB inh = prevents formation of the Rango-importin beta complex. Q14974. Rango CFP/YFP FRET sensor + importin beta, 45 min. Potency, µM (highest dose often 92.2 µM), for the others: top-dose inhibition of complex formation. 0.031% of 340,000 active. AID 540263; active = rising FRET ratio curve, often small or poorly fitted; inconclusive = mostly compound fluorescence or quenching in the first reads; inactive = flat curves in all reads;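 note: potency is the fitted concentration of half-maximal effect; 0% = DMSO wells and 100% = buffer wells lacking importin beta; nearly all actives have a fitted effect of over 15% in size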
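FRET biosensor Rango (snurportin 1 IBB between N-terminal EYFP and C-terminal Cerulean), 50 nM in PBS/1 mM DTT/0.02% Tween-20/0.1% BSA, preincubated 5 min RT with compound; 0.125 microM importin beta added, 45 min RT, CFP/YFP FRET ratio read.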
Rango dissoc inh = inhibitors of RanGTP-induced Rango-importin beta complex dissociation; O95149+P62826; Biochemical FRET Rango-importin beta, RanGTP-induced dissociation; Potency, µM (doses to about 46.1 µM), inactives show top-dose activity change, negative = inhibition; 0.071% of 340,000 active; AID 540253; active means falling FRET ratio curve, often poorly fitted, with flat reads before Ran was added; inconclusive means other falling curves, or compound fluorescence or quenching; inactive means flat or rising ratio curve;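 note: potency is the fitted concentration of half-maximal effect; % of control where 0% means no effect; nearly all actives have a fitted effect of over 45% in size; -100% = wells without RanGTP and RCC1; the record marks most hits as doubtful in a second field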
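Two FRET readings bracket the reaction: one 5 min after compound meets Rango–importin beta, another 45 min after RanGTP-RCC1 (0.6 uM Ran, 0.2 uM RCC1, 2 mM GTP) is added. Only the second defines inhibition.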
Numbers without * were called inactive; ? = inconclusive; . = not tested or not shown; & = joins results of further samples. Not all compounds are listed; count on the stated rates, not on these rows.

Every second line gives: Rango-impB inh	Rango dissoc inh	GLA inh pH 4.5	miR-21 FLuc
> CCCCN(C)CCNC(=O)CN1C(=O)CSc2ccc(S(=O)(=O)N3CCCCC3)cc21
    1.6%	-4%	.	0%&-5%
> Cc1cccc(NC(=S)NC(=O)CCc2ccccc2)c1
    -0.8%	3%	1	-21%
> COc1cccc(CNC(=O)CCCn2nc(C)c3c(C)n(-c4ccccc4)nc3c2=O)c1
    1.0%	14%	.	-3%
> N=c1c2c(-c3ccccc3)c(-c3ccccc3)n(Cc3ccco3)c2ncn1CCN1CCOCC1
    6.2%	-13%	-1	8%
> COc1ccccc1Nc1nc(-c2sc(NC(=O)C(C)(C)C)nc2C)cs1
    -1.4%	0%	0	26%
> CC1CCN(CCCNC(=O)c2n[nH]c(=O)c3ccccc23)CC1
    -3.4%	10%	5	-4%
> CCNC(=O)Cc1ccc(Br)cc1
    0.2%	9%	4	-3%
> CCCOc1ccc(N2C(=O)CC(N(CCOC34CC5CC(CC(C5)C3)C4)C(C)=O)C2=O)cc1 (stereo not given)
    1.1%	1%	-6	-4%
> CCC(C)Nc1cc(C)c(C#N)c2nc3ccccc3n12 (stereo not given)
    ?	?	.	3%
> O=C(Nc1cccc(C(=O)N2CCOCC2)c1)c1ncn[nH]1
    2.4%	11%	-2	2%
> COc1ccc(CCC(=O)NNC(=O)c2cccs2)cc1
    2.3%	21%	.	.
> O=C(O)COc1ccc(-c2nnn(Cc3ccccc3F)n2)cc1
    3.6%	-1%	6	0%
> C/C=N\NC(=O)CNC(=O)CNC(=O)c1ccccc1
    -3.1%	35%	0	-1%
> CCn1nnnc1SCC(=O)N1CCOCC1
    -0.1%	5%	7	3%
> O=C(Nc1ccccc1)NC1(C(=O)NCc2ccco2)CCCCC1
    0.1%	9%	-4	1%
> O=C1NC(=S)S/C1=C1\Sc2ccccc2N1CCCS(=O)(=O)O
    ?	?	-9	1%
> O=C(CCc1ccccc1)Nc1nc2ccc(S(=O)(=O)N3CCOCC3)cc2s1
    3.2%	2%	3	-2%
> COc1ccc(NC(=O)c2ccco2)cc1NC(=O)c1ccccc1F
    3.2%	-10%	.	-1%
> CCOc1ccc2c(C)c(Cl)c(=O)oc2c1
    0.4%	-6%	5	-11%
> COC(=O)[C@@]12CCCCN1[C@H](c1ccc(-c3ccc4c(c3)OCO4)cc1)[C@H]1C(=O)N(C)C(=O)[C@H]12
    0.2%	-1%	.	.
> COc1ccc(/C=N/NC(=O)CCCC(=O)NC2CCCCC2)cc1
    -2.6%	-5%	5	-4%
> O=C(c1cccc(N2C(=O)C3C4C=CC(C4)C3C2=O)c1)N1CCN(c2ccccc2Cl)CC1 (stereo not given)
    0.1%	-7%	.	24%
> COc1ccc(N2CSC3=C(C#N)C(c4cc(OC)c(OC)cc4OC)CC(=O)N3C2)c(OC)c1 (stereo not given)
    ?	-26%	-10	-10%
> CCOC(=O)c1c(C)[nH]c(C(=O)OCC(=O)Nc2cccnc2Cl)c1C
    1.7%	-4%	.	.
> COc1ccc(CCNC(=O)CCNS(=O)(=O)c2ccc3c(c2)CCN3C(C)=O)cc1OC
    4.0%	-19%	2	0%
> CCCOc1ccc(N2C(=O)CC(SC(=NCC)NCC)C2=O)cc1 (stereo not given)
    2.8%	0%	-5	-6%
> CC(C)(C)S(=O)(=O)c1cnc(N2CCOCC2)nc1N
    0.1%	-7%	-13	-7%
> COc1ccc(-n2nc3ccc(N)cc3n2)cc1Cl
    ?	?	.	-24%
> CCOC(=O)CCNC(=O)N1CCCC(N2CCN(c3ccc(OC)cc3)CC2)C1 (stereo not given)
    1.6%	-4%	.	1%
> Cc1ccc(-c2c(C(=O)N/N=C/c3cccnc3)nnn2-c2nonc2N)cc1
    -2.5%	-13%	.	0%

Sorted by number of heavy atoms (smallest number first): 3 of the compounds above
Every second line gives: Rango-impB inh	Rango dissoc inh	GLA inh pH 4.5	miR-21 FLuc
> CCCOc1ccc(N2C(=O)CC(SC(=NCC)NCC)C2=O)cc1 (stereo not given)
    2.8%	0%	-5	-6%
> COc1ccc(NC(=O)c2ccco2)cc1NC(=O)c1ccccc1F
    3.2%	-10%	.	-1%
> COC(=O)[C@@]12CCCCN1[C@H](c1ccc(-c3ccc4c(c3)OCO4)cc1)[C@H]1C(=O)N(C)C(=O)[C@H]12
    0.2%	-1%	.	.

Other results:
Every second line gives: Rango-impB inh	Rango dissoc inh	GLA inh pH 4.5	miR-21 FLuc
> O=C(NCc1ccccn1)c1ccc(Cn2cc(C(F)(F)F)ccc2=O)cc1
    4.0%	-16%	6	-6%
> CCCn1c(SCC(=O)OCC)nc(C(F)(F)F)cc1=O
    0.4%	7%	-3	-1%
> O=C(CN(c1ccccc1Cl)S(=O)(=O)c1ccccc1)NCc1ccccc1
    1.9%	3%	.	-3%
> CN(CC#CC(O)(c1ccccc1)c1ccccc1)C(C)(C)C
    -0.3%	-4%	-2	0%
> CCN(CC)CCNC(=O)Cn1cnc2sc(C)c(S(=O)(=O)N3CCC(C)CC3)c2c1=O
    -0.4%	0%	.	2%&13%
> CCn1nc(C)cc1C(=O)N(C)C1CCCN(Cc2ccccc2F)C1 (stereo not given)
    0.1%	-5%	.	-6%
> CC(C)(OC(=O)NC(=O)C(F)(F)F)C(C)(C)OC(=O)NC(=O)C(F)(F)F
    2.3%	18%	6	3%
> CC(=O)Nc1cccc(S(=O)(=O)N2CCCCCC2)c1
    1.7%	-3%	-6	-11%
> CCOc1ccc(CN2CCCC(CO)(Cc3ccc(F)cc3)C2)cc1 (stereo not given)
    -2.7%	-6%	.	-5%
> CC(=O)Oc1ccc(-c2cc3c(OC(C)=O)cc(OC(C)=O)cc3oc2=O)cc1
    ?	?	.	.
> Cc1nn(-c2ccccc2)c(C)c1/C=N/NC(=O)CSc1nnc(SCc2ccc(Cl)cc2)s1
    -4.6%	-7%	1	1%
> O=C(c1ccco1)[C@@H]1[C@@H]2C(=O)N(c3ccc(F)cc3)C(=O)[C@@H]2C2c3ccccc3C=CN21 (stereo not given in full)
    .	.	1	-20%
> COc1cc(NC(=O)CN(c2cc(C)cc(C)c2)S(=O)(=O)c2c(C)[nH]c(=O)[nH]c2=O)cc(OC)c1
    0.2%	-6%	.	0%&0%
> Cc1cc(C(=O)NNC(=O)c2ccccc2[N+](=O)[O-])c(C)o1
    ?	20%	.	.
> CC(C)CN(C(=O)c1ccc([N+](=O)[O-])s1)c1c(N)n(Cc2ccccc2)c(=O)[nH]c1=O
    -1.4%	-2%	.	.
> CCN(c1ccc(OC)cc1)S(=O)(=O)c1nnc(NC(=O)c2ccc(C)cc2)s1
    2.4%	19%	.	-9%
> Nc1ncnc2c1nc(N1CCCCC1)n2[C@@H]1O[C@H](CO)[C@@H](O)[C@H]1O
    0.7%	2%	.	.
> COc1ccc(C(=O)O/N=C(\N)Cc2ccc(Cl)cc2Cl)cc1OC
    -1.2%	10%	-13	?
> COc1cc(C(=O)Nc2nnc(CC(C)(C)C)s2)c([N+](=O)[O-])cc1OC
    2.0%	-1%	-2	-4%
> O=C(CSc1nnc(C2COc3ccccc3O2)o1)Nc1ccc(F)cc1Cl (stereo not given)
    -0.5%	9%	-6	-1%
> Cc1ccc(CN2C(=O)CCC2C(=O)NCCc2ccccc2)cc1 (stereo not given)
    -0.6%	-3%	.	-4%
> O=S(=O)(c1cccc(-c2nc3n(n2)Cc2ccccc2-3)c1)N1CCCCC1
    -1.4%	2%	-7	1%
> CC(C)Cn1c(N)c(C(=O)COC(=O)c2c(O)c(Cl)cc(Cl)c2Cl)c(=O)n(C)c1=O
    0.8%	-5%	.	.
> COc1ccccc1NC(=O)CN1CCCCC1
    ?	2%	2	-6%
> COc1ccc(C)cc1Nc1nc(-c2c[nH]c3ccccc23)cs1
    ?	-15%	-2	-14%
> Cc1occc1C(=O)NC1CCCN(Cc2ccc(Cl)cc2)C1 (stereo not given)
    -0.9%	16%	.	-3%
> CCCCSc1ccc(NC(=O)c2cccnc2)cc1
    0.0%	2%	1	-17%
> OC[C@@H](O)[C@H](O)C(/C=N/Nc1ccccc1)=N\Nc1ccccc1
    0.9%	8%	-16	-18%
> CCOC(=O)c1c(/N=C/c2cc(OC)cc([N+](=O)[O-])c2O)sc(C)c1C
    ?	6%	2	-3%
> C[C@@H]1CN[C@H](CCO)/C1=C\c1ccccc1
    2.2%	-14%	.	.
> CC(C)(C)NC(=O)Cn1nnc(-c2ccccc2NC(=O)c2cnccn2)n1
    1.1%	5%	-19	-1%
> O=C(COc1ncnc2ccccc12)Nc1ccc(S(=O)(=O)N2CCOCC2)cc1
    -4.8%	?	4	-1%
> Cn1nc(C(F)(F)F)cc1-c1ccc(S(N)(=O)=O)s1
    -2.1%	-6%	1	-48%
> CCOC(=O)C1CCN(C(=O)CN(C)S(=O)(=O)c2cc(C)ccc2OC)CC1
    -1.4%	-3%	-1	0%
> CCCCCCCCNS(=O)(=O)CCNC1CC1
    0.9%	24%	.	.
> COC(=O)CSc1nc2cc(Cl)ccc2c(=O)n1C1CCCC1
    -0.5%	-10%	4	7%
> Cn1nc(-c2ccc(N3CCOCC3)c(NS(=O)(=O)c3ccccc3)c2)c2ccccc2c1=O
    -8.5%	15%	0	-11%
> CC1CC(C)CN(C(=O)c2cc(-c3ccncc3)nc3ccccc23)C1 (stereo not given)
    1.3%	-9%	.	.
> C/C(=N\NC(=O)c1nn(C)cc1Br)c1cccc(NC(=O)C(C)(C)C)c1
    4.0%	-10%	7	-38%
> CCOC(=O)C(CC)/C(C)=N/NC(=O)c1ccc([N+](=O)[O-])cc1 (stereo not given)
    1.5%	-4%	3	-5%
> O=C(OCCc1cc2ccccc2c(=O)o1)c1ccccc1C(F)(F)F
    -1.5%	-1%	.	.
> O=C(NCCc1ccccc1)c1ccc2[nH]c(=O)c(=O)[nH]c2c1
    3.7%	-2%	.	0%
> CC(=O)Nc1ccc(S(=O)(=O)N(C)c2ccc(O)cc2)cc1
    -0.7%	-10%	4	4%
> Cc1ccc(C)c(N2CCN(c3ccc4cc(S(=O)(=O)N5CCCCC5)ccc4n3)CC2)c1
    1.4%	1%	.	1%
> CCOc1ccc(CN(C(=O)c2oc3ccccc3c2C)C2CCS(=O)(=O)C2)cc1 (stereo not given)
    2.6%	-8%	3	4%
> O=C1CCCCN1CC(=O)N1CCCC(Nc2ccc(F)cc2)C1 (stereo not given)
    -6.2%	-5%	.	3%
> Cc1ccccc1C(=O)NNC(=O)Cc1cccc2ccccc12
    0.4%	11%	8	-1%
> Cc1cc(C)nc(SCC(CSc2nc(C)cc(C)n2)C(=O)O)n1
    -1.9%	-2%	-23	0%
> CCC(=O)C1CCCN(C(=O)c2ccc(OC3CCN(C(=O)CCOC)CC3)cc2)C1 (stereo not given)
    -1.2%	-18%	.	0%
> COc1ccc(NC2=NCCC(=O)N2Cc2cccs2)cc1
    -3.8%	-9%	1	-5%
> COc1ccccc1CNC(=O)COC(=O)c1ccc(NC(N)=O)cc1
    ?	2%	1	-8%
> CN(CC(O)COc1c(F)cc(Br)cc1F)C1CCCCC1 (stereo not given)
    0.1%	-13%	-3	0%
> O=C(CCc1ccccc1)Nc1cc2c(cc1Cl)OCCO2
    0.3%	-8%	1	-80%
> COc1ccc(CNc2cc([N+](=O)[O-])ccc2OC)cc1
    -3.6%	-14%	-2	-8%
> O=C(CS(=O)(=O)c1c[nH]c2ccccc12)N1CCCCCC1
    0.0%	-5%	4	1%
> O=C(OCC(=O)c1ccc(Cl)s1)c1ccc2ccccc2n1
    -1.3%	4%	5	-5%
> CC(=C/c1ccccc1)/C=N/NC(=O)c1nnn(-c2nonc2N)c1CN1CCC(C)CC1
    0.0%	-16%	.	8%
